Screens deposited in PubChem by several laboratories.
UUG fidelity: modulators of yeast start codon fidelity, primary screen, whole organism, S. cerevisiae, single point, plate reader. 350,000 tested, 0.13% active. activity score, % at 18.7 µM. S. cerevisiae UUG-firefly luciferase reporter, luminescence/redox ratio;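 active = replicate mean at a twofold rise or more, about +100% in these data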;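 also: firefly luciferase made from a UUG start codon reports start codon fidelity; reporter light over untreated wells divided by growth signal over untreated wells; some hits fall short of that in this replicate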
CSC inhib: cancer stem cell viability inhibitors, primary screen, luminescence; cancer stem cell-like cells viability; 300,000 tested, 1.1% active; AID 2717, 2010; inhibition, % at 7.5 µM;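 active = mean at 75% or more and at least half the replicates too; inconclusive = mean and replicates disagree; tested in HMLE shEcad cells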;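 also: 0% = median of negative and 100% = median of positive control wells; the first replicate is given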
eIF4H inh: human eIF4H binding inhibitors, primary screen, translation initiation inhibitor project, biochemical, uHTS, fluorescence polarization; inhibition, % at 35 µM; Eukaryotic translation initiation factor 4H (Homo sapiens), Q15056; eIF4H fluorescence polarization binding assay; 290,000 tested, 0.94% active;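 active = 50% or more with normal probe brightness, or confirmed in later tests; inconclusive = above 50% with abnormal brightness, or retests that disagree; inactive = below 50% or failed in later tests; about a fifth of its hits are not listed in these tables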;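 also: calls also rest on retests at 20 µM and on dose response follow-up; 0% = protein and probe with vehicle and 100% = probe without protein; strong numbers were not always called active; many hits fall short of the cut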
Rce1 inhib: yeast Rce1p protease inhibitors, primary screen, biochemical, fluorescence, cell-free homogeneous; calls only; AID 2563, 2010; yeast membranes, quenched prenylated peptide cleavage fluorescence; CAAX prenyl protease 2 (Saccharomyces cerevisiae (strain ATCC 204508 / S288c)), Q03530; 290,000 tested, 0.27% active;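 active = fall in fluorescence gain of 50% or more versus controls, with final raw signal at or below 3038400; inconclusive = same 50% fall but final raw signal above 3038400; inactive = fall in fluorescence gain under 50%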;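 also: plate controls were neutral control wells for no effect and wells lacking membranes for full effect; tested at 10 µM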
Target sequence (Q03530 whole entry, looked up): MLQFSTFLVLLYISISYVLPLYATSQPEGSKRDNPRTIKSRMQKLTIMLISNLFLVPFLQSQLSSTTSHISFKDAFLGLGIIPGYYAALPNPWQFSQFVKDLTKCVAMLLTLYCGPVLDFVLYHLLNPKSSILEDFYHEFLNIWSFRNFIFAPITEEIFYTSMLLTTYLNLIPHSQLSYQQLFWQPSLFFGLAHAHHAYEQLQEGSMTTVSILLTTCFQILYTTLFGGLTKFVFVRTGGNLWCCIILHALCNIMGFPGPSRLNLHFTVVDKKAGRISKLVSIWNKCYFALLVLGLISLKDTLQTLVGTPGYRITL
PABP polyA inh: PABP poly(A) RNA binding inhibitors, primary screen, biochemical, fluorescence polarization, uHTS. inhibition, % at 35 µM. 290,000 tested, 1% active. AID 2014, 2009;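 active = 50% or more with normal probe brightness, or confirmed in later tests; inconclusive = above 50% with abnormal brightness, or retests that disagree; inactive = below 50% or failed in later tests; about a fifth of its hits are not listed in these tables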;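 also: calls also rest on retests at 20 µM and on dose response follow-up; controls were probe without protein and protein plus probe with vehicle; some compounds called inactive have numbers as strong as hits; many hits fall short of the cut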
MT1-MMP act inh: blockers of MT1-MMP proenzyme processing, primary screen, HT1080 RFP-PRO-GFP cells, GFP/RFP fluorescence. GFP/RFP ratio fluorescence, overnight; percent of plate control window, DMSO zero. GFP/RFP ratio change, % at 20 µM. 360,000 tested, 0.061% active. AID 651647, 2012;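 active = GFP/RFP ratio change of at least 30% with cell ATP level not reduced by more than half and red fluorescence within 50% of control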; also: strong numbers were not always called active
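Read-out: GFP/RFP fluorescence ratio; Test system: RFP-PRO-GFP reporter HT1080 cells; Compound dosing: single-point 20 µM compound, 1% DMSO; Times: overnight compound exposure at 37 °C.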
HIV Env fusion: inhibitors of HIV-1 Env-driven cell-cell fusion, primary screen, HeLa-JRFL effector, CEM21 target cells, luciferase. 360,000 tested, 1.1% active. AID 651610, 2012. inhibition, % at 12.3 µM;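 active = mean replicate inhibition score of at least 50 and every replicate individually at or above 50; inconclusive = only one of the two criteria met; inactive = mean below 50 and not all replicates reaching 50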;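 also: 0% = plate neutral controls and 100% = maraviroc near 300 nM; one replicate is shown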
MT1-MMP act inh RFP: recorded beside MT1-MMP act inh, whose call it bears; RFP signal change, %; measured here: RFP expression control read;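 0 = vehicle wells; hits needed this value within 50% of zero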
* marks the source's active call; other numbers are inactive results; i = inactive; u = inconclusive; x = no result given; & = joins results of further samples; [ ] = another dose, or the depositor's remark. These rows are one share of the data, so the mix of outcomes need not match the whole.

SMILES	UUG fidelity	CSC inhib	eIF4H inh	Rce1 inhib	PABP polyA inh	MT1-MMP act inh	MT1-MMP act inh RFP	HIV Env fusion
COc1cc(CC(=O)O)c(C(C)=O)cc1OC	3	-2	-5	i	3	7	8	x
O=C(NNC(=O)C1CCC(C(=O)NNC(=O)c2cccs2)CC1)c1cccs1 (centres undefined)	x	-7	7	i	-5	-7	1	-5
O=C(Nc1ccc(Cl)cn1)c1ccccc1SCc1ccccc1	-12	3	8	i	3	3	1	31
O=C(NN1CC(=O)N(c2cc(Cl)cc(Cl)c2)CC1=O)c1cccs1	-31	2	6	i	5	5	1	7
O=C(NCc1nnc(SCC(=O)N2CCCCCC2)o1)c1ccc(F)cc1	2	1	0	i	-6	-1	4	-6
COC(=O)C1=C(O)/C(=C\c2ccc(CNC(=O)C(=O)Nc3ccc(C)cc3)o2)N=C1C	x	2	u	i	u	-11	2	x
CCc1nnc(NC(=O)CSc2nc(-c3ccccc3)cc(-c3ccc(F)cc3)c2C#N)s1	-4	-7	26	i	-10	-58	-9	3
CCCCC1=CC2=CC(=O)C(C)(OC(=O)CC)C(=O)C2=CN1c1ccc(OC)cc1 (centres undefined)	-3	-4	46	i	41	-5	11	-28
O=C(Nc1cccc([N+](=O)[O-])c1)c1ccc2c(c1)C(=O)N(c1ccccn1)C2=O	-21	-10	-12	x	11	2	3	-2
O=C(Oc1ccc(Cl)c2ccccc12)N1CCCCC1	-8	-8	-3	i	16	3	-3	x
COC1OC(CO)C(O)C(O)C1O (centres undefined)	-18	-15	-1	i	5	1	3	x
CNC(=O)C1(C)Cc2c(-c3ccc4c(c3)OCO4)ccnc2O1 (centres undefined)	-12	x	x	x	x	2	5	-10
COc1cccc(-c2[nH]nc3c2C(c2ccsc2)C(C#N)=C(N)O3)c1 (centres undefined)	16	6	17	i	18	-6	3	-20
Cc1cc(=O)c(C(=O)O)cn1Nc1ccc(Cl)cc1	-7	-5	-5	i	-5	-1	-4	-95
C[C@H](CO)N1C[C@H](C)[C@@H](CN(C)C(=O)Nc2ccc(C(F)(F)F)cc2)Oc2c(NC(=O)c3ccncc3)cccc2C1=O	10&-15	x	x	x	x	4	4	9[16.7 µM]
Cc1cccnc1CCNC(=O)C1CCC(=O)N(Cc2cccc(F)c2)C1 (centres undefined)	-16	-14	5	i	8	-4	-1	-10
Cc1ccc(S(=O)(=O)NC(=O)c2ccc(-c3ccc(C)c4ccccc34)o2)cc1	-23	1	30	u	0	-3	0	16
CC1CCCCN1CC(O)COCc1ccc(Cl)cc1 (centres undefined)	3	-5	7	i	9	4	3	4
COc1ccc2ccc3c(c2c1)N=C[C@]1(O3)N(C)c2ccccc2C1(C)C	-27	-9	-8	i	-4	2	-9	x
COCCn1ccc2c(OCC(=O)NCc3ccc(C)cc3)cccc2c1=O	3	-17	x	i	x	3	-2	-3
CC(C)(C)C(=O)c1cnc(Nc2ccccc2Cl)s1	-22	1	7	i	-7	5	2	x
CCOC(=O)[C@H]1[C@H]2COc3cc(OC)ccc3[C@@H]2N2C(=O)c3ccc(C)cc3NC(=O)[C@@]12C	4	-23	x	x	x	-6	-3	-82
COc1ccc(-c2nc3ccccc3c(=O)n2CCOc2ccccc2C)cc1	-29	15	5	x	1	0	2	10
O=C(CCCNC(=O)c1ccc(Cl)cc1)Nc1ccccc1C(F)(F)F	-12	-9	-2	i	-7	7	9	-6
CC(C)NC(=O)c1onc(CSc2ccccc2F)c1C(=O)O	-15	-1	-1	i	-3	-3	2	-6
Cc1ccc(S(=O)(=O)N(C)c2ccc(C(=O)NCC(c3ccco3)N(C)C)cc2)cc1 (centres undefined)	-7	x	x	x	x	5	0	5
O=C1OC(/C(=C\Nc2ccccc2)[N+](=O)[O-])c2ccccc21 (centres undefined)	-7	5	-10	i	-19	3	2	9
COc1ccc(/C=C/C(=O)Nc2cc(C(F)(F)F)ccc2Cl)cc1	-11	-1	-5	i	-12	-4	-3	34
Cc1cc(NC(=O)CSc2nc(CC(C)(C)C)nc3c2c(=O)n(C)c(=O)n3C)no1	-4	-3	-2	i	-18	-11	-3	-67
CCNC(=O)NC(=O)COC(=O)CCCSc1nc2ccccc2[nH]1	-2	-8	2	i	2	-2	0	-8
CCOC(CCn1c(SCc2cccc([N+](=O)[O-])c2)nc2ccccc2c1=O)OCC	-3	-6	-9	i	-10	0	-6	x
CCC(NC(=S)NC1CCCCC1)c1ccccc1 (centres undefined)	-36	-7	-7	i	4	-2	-24	20
O=C(C[n+]1ccccc1)Nc1ccccc1	-19	-8	x	i	x	0	2	-225
CC1CCN(c2ccc3c(c2)S(=O)(=O)c2cc(C(=O)O)ccc2C3=O)CC1	-1	x	x	x	x	-32	4	-22
CCN(CC)CCNC(=O)CS(=O)Cc1nc(-c2ccc(Cl)cc2)oc1C (centres undefined)	-24	4	2	i	-5	-3	-1	-29
NC(=O)C1CCN(C(=S)c2ccc(-c3ccc(Br)cc3)o2)CC1	x	6	-2	i	0	3	-1	-7
CCCSc1nc2sc3c(c2c(=O)[nH]1)CC(C)(CC)OC3 (centres undefined)	-6	-11	0	i	11	6	2	-1
CN(CCOc1ccc(Cl)cc1)c1ccc(S(=O)(=O)N2CCCCC2)cn1	-11	11	0	x	-11	-3	-7	3
O=c1oc(-c2ccc(Br)o2)nc2ccccc12	-11	-7	-2	i	1	8	4	-33
COC(=O)c1cn[nH]c1NC(=S)Nc1ccccc1C	-35	x	8	i	24	0	-3	x
CN1OC[C@@H]2CN(Cc3cc(Cl)cc(Cl)c3)[C@H](c3cccc(-c4ccccc4)c3)C[C@@H]21	-15	x	x	x	x	1	-4	4
Cc1cc2c(NCC(C)O)ncnc2s1 (centres undefined)	-5	x	x	x	x	3	-4	13
COc1ccc(C(=O)NC(=S)NC2CCCCC2)cc1	-24	15	-9	i	-6	1	-1	-36
Cc1ccc2nc(SCC(=O)Nc3cc(C)on3)[nH]c2c1	-10	-14	-1	i	6	1	-2	x
Cc1cc(C)nc(N2CCCC(C(=O)Nc3nnc(C(C)(C)C)s3)C2)n1 (centres undefined)	x	-15	1	i	2	1	1	8
c1cnc2c(-c3cccc4nccn34)cccc2c1	-15	x	x	x	x	-1	3	-13
N#C/C(=C\c1ccc(O)c(O)c1)C(=O)c1ccc(O)c(O)c1	-19	-3	x	x	x	-1	2	-412
Cc1ccc(C)c(NC(=O)c2ccc(S(=O)(=O)N(C)CC3CCCO3)cc2)c1 (centres undefined)	-10	-2	-3	i	-2	3	-3	-18
Cc1ccc(C(NC(=O)N2CCCC2)C(Cl)Cl)cc1F (centres undefined)	-5	-2	-11	i	2	-3	1	3
CCOc1cc(CNCCO)cc(Br)c1OCc1ccc(Cl)cc1Cl	-16	148*	0	i	4	-1	3	x
COc1cc2ncnc(NCc3ccccc3Cl)c2cc1OC	x	31	-12	i	-12	1	-6	39
C=CCNc1ccc(N2C(=O)C3CCC(C)CC3C2=O)cc1[N+](=O)[O-] (centres undefined)	x	17	-4	i	1	x	x	14
CC(C)c1ccc(NC(=O)COC(=O)/C=C/c2cccc(Br)c2)cc1	x	x	-6	i	7	-12	-5	-101
CCc1cc(-c2n[nH]c(C)c2-c2nc3ccccc3s2)c(O)cc1OCC(=O)NN	x	42	8	i	-12	0	0	-1
CCc1ccccc1NNC(=O)c1cc(C)on1	x	39	-7	i	4	0	-2	-1
CCCCNC(=O)c1cnc(Cc2c[nH]c3ccccc23)c(I)c1	-19	x	x	x	x	1	-4	-73
Cc1cc(Cl)cc(Br)c1OCCCNCC(C)O (centres undefined)	-2	4	2	i	-4	-4	-3	2
CC(=O)Nc1ccc(S(C)(=O)=O)c(C)c1	-10	x	4	i	12	1	6	-16
CCC1=[N+]([O-])C(C)(/C(C)=N\O)N(O)C1(C)C (centres undefined)	-7	-18	-4	i	-7	7	4	-52
Cc1ccc2c(c1)C(=O)CCN2	-16	-16	5	i	17	2	6	x

Already shown: entries from further up.
SMILES	UUG fidelity	CSC inhib	eIF4H inh	Rce1 inhib	PABP polyA inh	MT1-MMP act inh	MT1-MMP act inh RFP	HIV Env fusion
c1cnc2c(-c3cccc4nccn34)cccc2c1	-15	x	x	x	x	-1	3	-13
N#C/C(=C\c1ccc(O)c(O)c1)C(=O)c1ccc(O)c(O)c1	-19	-3	x	x	x	-1	2	-412
Cc1ccc(C)c(NC(=O)c2ccc(S(=O)(=O)N(C)CC3CCCO3)cc2)c1 (centres undefined)	-10	-2	-3	i	-2	3	-3	-18
Cc1ccc(C(NC(=O)N2CCCC2)C(Cl)Cl)cc1F (centres undefined)	-5	-2	-11	i	2	-3	1	3

Further results.
SMILES	UUG fidelity	CSC inhib	eIF4H inh	Rce1 inhib	PABP polyA inh	MT1-MMP act inh	MT1-MMP act inh RFP	HIV Env fusion
CCc1nc2ccc(C(=O)N3CCN(S(=O)(=O)CC)CC3)cn2c1N(C)CCC(C)C	-10	x	x	x	x	1	1	41
COc1ccc(CSc2nncn2C)cc1F	x	19	-4	i	0	0	2	60*
N/C(=N\OC(=O)Cc1ccc(Cl)cc1)c1ccncc1	x	-7	-3	i	-3	-1	-6	-2
O=S(=O)(c1ccc(Cl)cc1)N1CCN(c2ncnc3sccc23)CC1	9	12	x	x	x	-3	-26	4
Cc1nn(CC(=O)Nc2cccc(Cl)c2)c(=O)c2cc(-c3ccccc3)nn12	x	-21	-13	i	-3	-4	-1	-4
CN(Cc1ccccc1)C(=O)CC(=O)N(C)Cc1ccccc1	-7	-6	-12	i	1	4	6	1
CCc1ccccc1NC(=O)NNS(=O)(=O)c1cc(C)ccc1C	-1	-3	-10	i	6	2	0	-21
CCc1ccc(NC(=O)c2sccc2-n2cccc2)cc1	-12	-3	0	i	-1	-3	2	-22
O=C(CNS(=O)(=O)c1ccc(F)cc1)Nc1ccccc1	-12	-7	-5	i	12	1	3	-10
COc1ccc(C(NC(=O)C2CCN(CCCOc3ccccc3)CC2)c2ccccn2)cc1 (centres undefined)	-5	x	x	x	x	1	2	-7
CCOc1ccccc1N=Cc1c(O)n(C)c(=O)n(C)c1=O	-15	x	-7	i	-13	1	2	5
Cc1nc2cc(C(=O)O)ccc2n1-c1ccc(F)cc1F	-9	-8	11	i	8	5	4	x
CC(/C=C/c1ccco1)=N/NC(=O)Cc1cccs1	-11	-4	x	i	x	0	5	-10
CC(C)C[C@H]1CN=C(Nc2ccccc2)N1CCCCc1ccccc1	-10	9	-10	i	-3	2	-4	16
CCC(CO)NC(=O)c1ccc(-c2nn(C)c(=O)c3ccccc23)cc1 (centres undefined)	x	14	9	i	5	1	6	-22
O=Cc1cc(CCC(=O)O)ccc1O	2	-9	8	i	-1	4	2	-66
COc1ccccc1N(C(=O)c1ccco1)C(C(=O)NC1CCCC1)c1cccs1 (centres undefined)	-18	x	7	i	2	-1	2	6
Cc1c(O)ccc(C(=O)CN2CCN(c3ccc(F)cc3)CC2)c1O	-10	-5	-1	i	0	1	3	-14
O=C(NNC(=O)c1sccc1-n1cccc1)c1cccc(Cl)c1	x	-11	-1	i	-1	0	0	x
CCOC(=O)COc1ccc(-c2nnc(-c3ccccc3)o2)cc1	-20	2	3	i	-2	7	-2	-10
